Assay outcomes as filed in PubChem BioAssay.
GIV-Gai inh = blocks GIV peptide binding to rat Galpha-i3; P08753; 210,000 tested, 0.42% active; percent of control (FP), % (no concentration beside the values); Galpha-i3/FITC-GIV peptide fluorescence polarization, 90 min; hits give low values; scaled: aluminum fluoride 0%, vehicle 100%;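 active means replicate mean at 85% of control or lower, very high polarization wells dropped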;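 further: wells of about 15 µL received 100 nL stock; the first replicate is given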
Target sequence (P08753 whole entry, looked up): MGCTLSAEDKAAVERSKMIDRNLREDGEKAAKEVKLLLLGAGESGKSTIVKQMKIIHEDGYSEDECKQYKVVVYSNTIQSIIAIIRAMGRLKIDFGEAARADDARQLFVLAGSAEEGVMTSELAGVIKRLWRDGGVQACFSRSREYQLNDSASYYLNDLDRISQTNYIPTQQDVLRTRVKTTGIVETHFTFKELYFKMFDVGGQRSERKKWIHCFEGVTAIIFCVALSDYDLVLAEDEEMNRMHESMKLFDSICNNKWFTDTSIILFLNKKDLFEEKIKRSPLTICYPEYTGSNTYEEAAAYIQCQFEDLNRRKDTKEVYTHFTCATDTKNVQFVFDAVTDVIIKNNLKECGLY
HCMV UL50-53 inh = disrupts HCMV UL50-UL53 complex binding | HTRF UL50-UL53 interaction, normalized percent inhibition | inhibition, % (concentration not given with the values) | 190,000 tested, 0.15% active;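 active means both replicates at 50% or more, plus weaker picks with an unusually low signal ratio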;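 further: stock transfer was 100 nL into about 20 µL; 0% = negative control wells and 100% = wells with untagged competitor protein; inactives centre near -12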
Sa growth 42C = S. aureus growth inhibition; S. aureus RN4220 growth, OD600, 20 h, 42 °C; hits give low values; relative growth, % (test concentration not listed); 170,000 tested, 0.53% active;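 active means growth at 42 °C up to 50% and 20 or more points under that at 30 °C, or under 10% at both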;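 further: 300 nL library stock went into each well; scaled to the means of positive and negative controls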
Sa growth 42C second temp = also measured in Sa growth 42C; calls as there; relative growth, %; measured here: growth at 30 °C;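 optical density after 20 h as mean of two plates; 100% = untreated growth and lower means inhibition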
Active calls of the source: *; x = not tested or not shown.

#	SMILES	GIV-Gai inh	HCMV UL50-53 inh	Sa growth 42C	Sa growth 42C second temp
1	COc1ccc(C(=O)c2cc(CC(=O)O)c(-c3ccc(OC)cc3)s2)cc1	96	-86	83	58
2	Cc1nc(NCCc2ccccc2)c2c3c(sc2n1)CCCC3	107	x	83	84
3	COc1ccc(NC(=O)c2ccc3c(c2)N(Cc2cccc(Cl)c2)C(=O)c2ccccc2S3(=O)=O)cc1Cl	100	-24	109	84
4	CCN1CCN(c2oc(-c3ccc(COc4ccc(OC)cc4)o3)nc2C#N)CC1	100	-53	98	70
5	COC(=O)c1c(-c2ccccc2)c(-c2ccccc2)nn(C)c1=O	107	x	116	94
6	CC(=O)N(C1=C(O)c2ccccc2C(=O)C1=O)C1CCCCC1	101	-110	89	101
7	CCOC(=O)CNC(=O)n1nc(C)c2ccccc21	99	-21	x	x
8	COc1ccccc1-c1ccc(=O)n(CC#N)n1	99	-17	85	94
9	CCN(CC)Cc1c(O)ccc2c(-c3ccccc3)cc(=O)oc12	101	-98	89	87
10	N#Cc1ccccc1OCC(=O)OCC(=O)NC1CCCCCC1	x	-19	103	88
11	COc1ccccc1NC(=O)C1C2c3ccccc3C(c3ccccc32)C1C (stereo not drawn)	108	-17	115	94
12	CCCCNc1nc(Oc2ccc(OCC(N)=O)nn2)nc(N2CCOCC2)n1	102	2	96	90
13	Nc1c(C(=O)NCc2ccc3c(c2)OCO3)c2nc3ccccc3nc2n1C1CCCCC1	x	29	110	97
14	CCNc1nc(NCC)nc(OCCNS(=O)(=O)c2ccccc2)n1	106	-2	102	78
15	COCCn1c(=NC(=O)CN2C(=O)c3ccccc3C2=O)sc2ccccc21	107	-20	101	90
16	CN(C)c1nc2n(c(=O)n1)CCN2C(=O)Nc1ccccc1	106	-6	95	85
17	CN(Cc1nc2ccccc2n1C)C(=O)c1cccs1	99	x	105	91
18	CNC(=O)C1CCC(Cn2c(=O)c3sccc3n(CC(=O)NC3CCCC3)c2=O)CC1 (stereo not drawn)	107	-9	x	x
19	CC(CCCc1ccccc1)NC(=O)c1nn(-c2ccc(Cl)cc2)nc1CO (stereo not drawn)	95	-26	94	95
20	CN=c1scc(-c2ccc3c(c2)NC(=O)CO3)n1C	x	-1	84	96

#	SMILES	GIV-Gai inh	HCMV UL50-53 inh	Sa growth 42C	Sa growth 42C second temp
21	COC(=O)COc1ccc2c(=O)c(Oc3ccc(OC)cc3)coc2c1	107	x	98	83
22	COc1ccc(C(=O)NCCSc2c[nH]c3ccccc23)cc1OC	104	-10	108	94
23	O=C(NCc1ccc(Cl)cc1)C1CCN(S(=O)(=O)c2ccc3c(c2)CCCN3C(=O)C2CCC2)CC1	109	x	142	85
24	O=C(OC1CCCC1=O)c1ccc(N2CCCC2=O)cc1 (stereo not drawn)	x	-34	83	70
25	CCCCN(C)C(=O)c1cc(-c2ccccc2)n[nH]1	106	x	99	86
26	Nn1cnc2ccccc21	x	2	101	95
27	c1ccc2c(c1)CCCC2NC1=NCCC1 (stereo not drawn)	x	-18	92	96
28	Fc1ccc(-c2cc(-c3ccc(F)cc3)c3c(n2)-c2cc(F)ccc2OC3)cc1	107	11	97	106
29	COc1cccc(C(=O)Nc2cccc(N3CCCS3(=O)=O)c2)c1OC	100	-5	x	x
30	CSc1nc(C)cc(Oc2ccc(=O)n(-c3ccccc3)n2)n1	103	-29	105	94
31	CC1C(C#N)=C(SCC#N)NC2=C1C(=O)CC(C)(C)C2 (stereo not drawn)	97	-21	111	50
32	Oc1ccc(-c2nc3c4ccccc4ncn3n2)cc1	x	12	120	102
33	CCOc1ccccc1NC(=O)CN1C(=O)C(=O)c2ccccc21	105	18	102	85
34	Nc1nnc(CS(=O)(=O)c2ccc(Cl)cc2)o1	104	-13	101	86
35	COc1ccc(NC(C)=O)cc1NC(=O)CN1CCN(c2ccc(F)cc2)CC1	107	x	91	84
36	CC1=NN(c2ccc(C)cc2)C(=O)C1=C1SCCCS1	96	-55	116	93
37	Cc1cnc(C(=O)N(CC(=O)Nc2cccc(C)c2C)CC2CCCO2)cn1 (stereo not drawn)	x	-21	106	99
38	Cc1noc(C)c1NC(=O)NCc1cc(F)cc2c1OCOC2	107	-14	89	91
39	Cn1c(=O)c(-c2noc(CCC(=O)Nc3cccnc3Cl)n2)nn(-c2ccc(F)cc2)c1=O	106	-124	x	x
40	Cc1ccc(NC(=S)C(C#N)C(N)=O)cc1Cl (stereo not drawn)	102	-22	91	66

#	SMILES	GIV-Gai inh	HCMV UL50-53 inh	Sa growth 42C	Sa growth 42C second temp
41	CCCN(CCC)c1cc(C)nc2nc(-c3ccc(Cl)cc3)nn12	104	-23	97	85
42	Cc1nn(C)c2nc(C(F)(F)F)cc(C(F)(F)F)c12	x	-23	99	86
43	O=C(Nc1ccccc1)C(O)C(O)C(O)CO (stereo not drawn)	106	-3	115	97
44	COc1ccc(NC(=O)c2cc3ccccc3o2)cn1	111	4	110	94
45	CCCN(CCC)C(=O)C1CCCN(S(=O)(=O)c2ccc3c(c2)oc(=O)n3C)C1 (stereo not drawn)	103	-41	105	92
46	O=C(Oc1ccc(C2Oc3ccccc3C3CC(c4ccc(Br)cc4)=NN32)cc1)c1ccccc1 (stereo not drawn)	101	-8	x	x
47	COc1ccc(C2CC(=O)C3=C(C2)Nc2ccccc2NC3c2ccc(OC)c(Br)c2)cc1 (stereo not drawn)	101	-14	x	x
48	COCC(C)N1C(=O)Cc2c1nc(N)c1c(N)nc(N3CCN(c4ccccc4F)CC3)c(C#N)c21 (stereo not drawn)	x	-24	95	90
49	CC(=O)Nc1ccc(/C(C)=N/NC2=NCCN2)cc1Br	100	-11	80	94
50	COc1ccc(Cn2ncc3ccc(C(=O)NC4CCCC4)cc32)cc1	99	-3	x	x
51	O=c1ccc(-c2ccc(S(=O)(=O)NC3CCCCC3)s2)n[nH]1	102	x	104	92
52	Cc1ccc(S(=O)(=O)N2CCN(Cn3nc(Nc4ccccc4F)sc3=S)CC2)cc1	x	-21	76	73
53	CC1CCC2C(C)(CO)C(O)CCC2(C)C12CCC(C)(CO)O2 (stereo not drawn)	x	1	93	94
54	COc1ccc(N(C(=O)/C=C\C(=O)Nc2ccc(C)cc2)C(C(=O)NCc2ccco2)c2ccc(C)cc2)cc1 (stereo not drawn)	106	x	108	92
55	[O-][n+]1onc(-c2ccccc2)c1-c1ccccc1	101	0	116	72
56	C#CCn1c(COc2ccccc2C)nc2ccccc21	105	-17	98	85
57	CCS(=O)(=O)c1ncc(Cl)c(C(=O)Nc2sc3c(c2C(N)=O)CCCC3)n1	100	-1	x	x
58	CC(C)(C)OC(=O)N1CCC(c2c(C(=O)NCc3cccc(Cl)c3)cnn2-c2ccc(F)cc2)CC1	110	x	98	77
59	CCOc1ccc(-n2nc3ccc(NC(=O)COc4ccc(OC)cc4)cc3n2)cc1	105	-12	117	88
60	COC(=O)c1ccc(N2CCCC2=O)cc1O	100	-8	100	88

The closing 5 records of the section above lead into the next.
#	SMILES	GIV-Gai inh	HCMV UL50-53 inh	Sa growth 42C	Sa growth 42C second temp
56	C#CCn1c(COc2ccccc2C)nc2ccccc21	105	-17	98	85
57	CCS(=O)(=O)c1ncc(Cl)c(C(=O)Nc2sc3c(c2C(N)=O)CCCC3)n1	100	-1	x	x
58	CC(C)(C)OC(=O)N1CCC(c2c(C(=O)NCc3cccc(Cl)c3)cnn2-c2ccc(F)cc2)CC1	110	x	98	77
59	CCOc1ccc(-n2nc3ccc(NC(=O)COc4ccc(OC)cc4)cc3n2)cc1	105	-12	117	88
60	COC(=O)c1ccc(N2CCCC2=O)cc1O	100	-8	100	88
61	CCCNC(=O)CN1CCN(c2ncc(NC(=O)c3ccc(Cl)cc3)cc2C(=O)O)CC1	102	x	94	85
62	Cc1cc(C)cc(C(=O)/C=C2\NC(=O)CS2)c1	x	6	115	99
63	COc1ccc(OC)c(C2CC(=O)N(c3cccc(C)c3)C3=C2C(=O)OC3)c1 (stereo not drawn)	101	20	100	101
64	Cc1nc2ccccc2n1CCNC(=O)C(C)C	100	-28	x	x
65	CCNC(=O)CSCc1ccc(C)cc1	96	-3	91	97
66	COc1ccc(-c2n[nH]c(=S)n2C)cc1	x	-37	101	101
67	Cc1cc(C)c2c(n1)nn1c(C)c(CCC(=O)NC3CCCC3)c(C)nc21	103	x	99	87
68	Cc1[nH]c2ccccc2c1C(Nc1cccc(C(F)(F)F)c1)c1ccccn1 (stereo not drawn)	100	x	95	87
69	COc1ccc(C2=NN(C(=O)c3cc(OC)c(OC)c(OC)c3)C(c3ccc(F)cc3)C2)cc1OC (stereo not drawn)	107	-22	x	x
70	CCc1ccccc1NNC(N)=S	103	-29	77	62
71	c1ccc(CCN2CCN(c3ccccc3)CC2)cc1	109	-11	77	101
72	CCn1cc(C(=O)NCc2ccccc2)c(=O)c2cc(S(=O)(=O)N3CCCCC3)ccc21	103	-13	103	93
73	Cn1c(COc2ccc(Cl)cc2)nnc1SCC(=O)Nc1c(C#N)oc2ccccc12	x	-17	110	81
74	O=C1Nc2ccccc2C(=O)C1(O)O	103	-17	68	63
75	CCOc1c(Nc2cc(OC)cc(OC)c2)c(=O)c1=O	110	-12	x	x
76	Cc1ccc(Cn2nc3n(c2=O)-c2cc(Cl)ccc2OC3)cc1	103	-3	97	87
77	CC12CCC(=O)N1C(C(=O)OCC(=O)c1ccc(F)c(F)c1)CS2 (stereo not drawn)	x	-6	97	92
78	COc1cc(OC)c(C2C(C#N)=C(N)Oc3n[nH]c(-c4ccc(C)cc4)c32)cc1OC (stereo not drawn)	105	-80	x	x
79	COc1ccc(NC2(C(N)=O)CCCCC2)cc1	x	16	102	99
80	c1ccc(CCNc2ccc3nncn3n2)cc1	101	4	90	73

#	SMILES	GIV-Gai inh	HCMV UL50-53 inh	Sa growth 42C	Sa growth 42C second temp
81	CCOc1ccccc1NC(=O)CN1C(=O)COc2ccc(S(=O)(=O)N3CCCCC3)cc21	109	x	140	94
82	CCC(C)C1N=C2c3ccccc3N=C(SCc3cc(=O)n4ccccc4n3)N2C1=O (stereo not drawn)	101	x	98	89
83	CCc1ccccc1NC(=O)C(CC)N1C(=O)C2(OCCCO2)c2ccccc21 (stereo not drawn)	105	3	105	90
84	Cc1ccc(/C=C/C(=O)NC2CCCc3ccccc32)o1 (stereo not drawn)	x	13	83	99
85	NC(=O)N/N=C/c1coc2ccccc2c1=O	104	-15	100	92
86	Cc1oc(-c2cccc(Br)c2)nc1Cn1c(=O)cc(-c2ccccc2)c2c(C)nn(C)c21	102	x	77	91
87	COc1ccc(OC)c(NC(=O)CN2C(=O)CC(C)(C)Sc3ccccc32)c1	107	-1	96	77
88	COc1ccc(Cl)c2sc(N3CCN(C(=O)CS(=O)(=O)c4ccc(F)cc4)CC3)nc12	106	-8	90	62
89	COc1ccccc1Cn1ccn(Cc2c(F)cccc2Cl)c(=O)c1=O	99	-1	106	106
90	Cc1cn2c(=O)cc(COc3ccc(NC(=O)c4cccc(F)c4)cc3)nc2s1	107	2	92	97
91	S=C(NC1CCCC1)N1CCN(C/C=C/c2ccccc2)CC1	100	-9	134	90
92	Cc1ccc(N/N=C(/C#N)C(=N)N2CCCCCC2)cc1	102	-9	108	63
93	Cc1ccccc1C(C#N)C(CC#N)c1ccccc1 (stereo not drawn)	x	7	74	99
94	FC(F)(F)c1cc(-c2nccs2)nc2cc(-c3cccs3)nn12	99	-16	98	84
95	COc1ccc(N(Cc2cccs2)C(=O)COc2ccc([N+](=O)[O-])cc2)cc1	102	-13	110	85
96	CCSc1ncc(Cl)c(C(=O)Nc2c(C(=O)Nc3ccccc3)oc3ccccc23)n1	105	6	101	94
97	CC(=O)Nc1ccc2c(c1)n(C)c(=O)n2C	101	-9	114	85
98	CCCSCCCNC(=O)c1ccc(Cn2c(=O)c3cccn3c3cccnc32)cc1	107	x	110	85
99	Cc1cccc(-c2noc(CNC(C)C)n2)c1	104	1	84	89
100	CCOC(=O)C(C(=O)Cc1ccccc1)c1ccccc1 (stereo not drawn)	104	6	108	98
101	CC(C)(C)c1cc(CCC(=O)N2CCC2)cc(C(C)(C)C)c1O	x	12	122	112

Complete entries, quoted from the list. Screens in order: GIV-Gai inh	HCMV UL50-53 inh	Sa growth 42C	Sa growth 42C second temp
Profile of CCSc1ncc(Cl)c(C(=O)Nc2c(C(=O)Nc3ccccc3)oc3ccccc23)n1 → 105	6	101	94
Profile of COc1ccccc1Cn1ccn(Cc2c(F)cccc2Cl)c(=O)c1=O → 99	-1	106	106
